# GLA inh pH 4.5: inhibitors of human alpha-galactosidase A at pH 4.5; P06280; purified enzyme, 4-MU-alpha-Gal fluorescence, pH 4.5; activity change, negative = inhibition, % at 105 µM; 230,000 tested, under 10 active; inconclusive = small, poorly fitted or top-dose-only inhibition, or a rising curve; inactive = flat fitted curve, though single readings scatter; no compound was filed as active;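 also: 0% = full activity with enzyme and -100% = basal without enzyme; dose as in the result columns while the protocol names 77 µM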
# Rango release inh: inhibitors of RanGTP-induced Rango-importin beta complex dissociation | O95149+P62826 | Biochemical FRET Rango-importin beta, RanGTP-induced dissociation | Potency, µM (series often up to 46.1 µM), without a hit: at the highest dose activity change, negative = inhibition | 340,000 compounds, 0.071% hits | AID 540253; active means falling FRET ratio curve, often poorly fitted, with flat reads before Ran was added; inconclusive means other falling curves, or compound fluorescence or quenching; inactive means flat or rising ratio curve;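 also: potency is read from the fitted curve at half-maximal effect; % of control where 0% means no effect; nearly all actives have a fitted effect of over 45% in size; -100% = wells without RanGTP and RCC1; the record marks most hits as doubtful in a second field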
#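 Quantitative HTS using a FRET biosensor: 0.1 uM Rango, 0.25 uM importin beta, 0.6 uM Ran, 2 mM GTP, 0.2 uM RCC1 final, PBS with DTT, Tween-20 and BSA. Post-read taken 45 min after Ran addition.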
# miR-21 reporter: miR-21 reporter, rising signal. AID 2288. HeLa miR-21 FLuc reporter, luciferase, 48 h. Potency, µM (top dose mostly 38.3 µM), for the others: at the highest dose reporter change, positive = more light. 340,000 tested, under 10 active; active = well fitted rising curve with a large enough effect; inconclusive = small, poorly fitted or top-dose-only effect; inactive = no such curve, though single readings can be large or run the other way;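 also: % of control where 0% means no effect; miR-21 action dims this reporter so a rising signal means less miR-21 action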
#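 HeLa miR-21-FLuc reporter line, endogenous miR-21; 2000 cells/well in DMEM/10% FBS; compound titration up to ~40uM final, 48 h, 37 degree Celsius; luciferase detection reagent, 15 min lysis, CCD luminescence.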
# Rango-impB inh: Rango-importin beta binding inhibition | Q14974 | Potency, µM (top dose mostly 92.2 µM), for the others: top-dose inhibition of complex formation | 340,000 compounds, 0.031% hits | AID 540263 | Rango CFP/YFP FRET sensor + importin beta, 45 min; active = rising FRET ratio curve, often small or poorly fitted; inconclusive = mostly compound fluorescence or quenching in the first reads; inactive = flat curves in all reads;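 also: potency is read from the fitted curve at half-maximal effect; 0% = DMSO wells and 100% = buffer wells lacking importin beta; nearly all actives have a fitted effect of over 15% in size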
# Target sequence (Q14974 whole entry, looked up): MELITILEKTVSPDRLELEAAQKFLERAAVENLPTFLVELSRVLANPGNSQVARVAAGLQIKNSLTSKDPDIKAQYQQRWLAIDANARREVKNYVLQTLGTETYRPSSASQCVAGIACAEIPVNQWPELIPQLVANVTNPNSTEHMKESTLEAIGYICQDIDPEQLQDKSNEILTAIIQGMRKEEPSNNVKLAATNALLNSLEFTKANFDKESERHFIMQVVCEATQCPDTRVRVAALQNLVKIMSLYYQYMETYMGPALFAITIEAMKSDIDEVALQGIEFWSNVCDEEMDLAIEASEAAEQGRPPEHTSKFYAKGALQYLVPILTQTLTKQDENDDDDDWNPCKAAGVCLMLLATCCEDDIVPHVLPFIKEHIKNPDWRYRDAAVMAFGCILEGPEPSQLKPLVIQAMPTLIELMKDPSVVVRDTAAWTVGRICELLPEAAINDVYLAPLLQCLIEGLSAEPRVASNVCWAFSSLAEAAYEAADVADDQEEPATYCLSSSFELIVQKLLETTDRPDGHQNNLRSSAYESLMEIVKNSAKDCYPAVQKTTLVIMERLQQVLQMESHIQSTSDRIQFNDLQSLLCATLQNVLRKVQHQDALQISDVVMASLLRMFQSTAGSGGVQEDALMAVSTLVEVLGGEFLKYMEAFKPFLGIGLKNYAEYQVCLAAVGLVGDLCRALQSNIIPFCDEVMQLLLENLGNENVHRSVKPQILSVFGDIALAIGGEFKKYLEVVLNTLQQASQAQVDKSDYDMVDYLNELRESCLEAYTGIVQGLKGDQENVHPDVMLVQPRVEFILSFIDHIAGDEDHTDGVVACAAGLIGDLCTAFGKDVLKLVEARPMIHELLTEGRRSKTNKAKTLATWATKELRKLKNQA
#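 FRET biosensor (snurportin 1 IBB flanked by EYFP and cerulean), 50 nM, with compound 5 min, then 0.125 microM importin beta in PBS, 1 mM DTT, 0.02% Tween-20, 0.1% BSA. CFP/YFP ratio read after 45 min at room temperature; pre-read flags interference.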
# * hit, by the source's call; ? = inconclusive; . = not tested or not shown; & = joins results of further samples.
# Each structure is followed by: miR-21 reporter, Rango-impB inh, Rango release inh, GLA inh pH 4.5
> CSCCC(NC(=O)C1CCC(C)CC1)C(=O)NCCN1CCOCC1 (stereo not given)
→ -5%, -6.9%, 8%, -6
> CCCOc1ccc(N2C(=O)CC(SC(=NC)Nc3ccc(F)cc3)C2=O)cc1 (stereo not given)
→ 0%, 0.5%, -12%, 9
> Cc1ccccc1OCC(=O)NNC(=O)Nc1ccccc1
→ -11%, -3.8%, 0%, -5
> C/C(=N\NC(=O)c1c(Br)c(C)nn1C)c1cccc(NC(=O)C2CCC2)c1
→ -21%, 1.0%, 15%, -3
> O=S(=O)(Nc1ccc(N2CCCCC2)cc1)c1cccc2cccnc12
→ -22%, -0.5%, -4%, 0
> O=C(N/N=C/c1cccc([N+](=O)[O-])c1)c1ccc2nc[nH]c2c1
→ -3%, 0.8%, -14%, 8
> Oc1cccc(CCc2ccccn2)c1
→ ., -2.1%, 3%, .
> O=C(Cc1ccccc1)Nc1ccc(NC(=O)c2ccccc2)c(Cl)c1
→ -10%, 0.3%, -10%, .
> NC(=O)CC[C@H](NC(=O)[C@H](Cc1ccccc1)n1c(=O)[nH]c2ccccc2c1=O)C(=O)N1CCC[C@H]1C(=O)O
→ -1%, -0.6%, 2%, .
> CCOC(=O)c1sc(NC(=O)c2ccccc2F)c(C(N)=O)c1C
→ -4%, 1.8%, -20%, 12
> CCOC(=O)N1CCC2(CC1)C(C(=O)C13CC4CC(CC(C4)C1)C3)C2(C#N)C#N (stereo not given)
→ -4%, ?, ?, -16
> CC(OC(=O)c1cccc(S(=O)(=O)N2CCCCC2)c1)C(=O)NC1CCCCC1C (stereo not given)
→ -3%, 1.8%, -1%, .
> CC1=C(C(=O)Nc2ccccc2)C(c2ccccc2)N2C(=O)CSC2=N1 (stereo not given)
→ 0%, 2.8%, 7%, 2
> Cc1ccc(NS(=O)(=O)c2cccc3cccnc23)cc1Cl
→ -2%, 0.1%, -14%, .
> O=C(C=C(C(=O)c1ccccc1)c1ccccc1)c1ccccc1
→ ., 3.5%, 0%, .

# The closing three records of the section before lead into the next:
# Each structure is followed by: miR-21 reporter, Rango-impB inh, Rango release inh, GLA inh pH 4.5
> CC1=C(C(=O)Nc2ccccc2)C(c2ccccc2)N2C(=O)CSC2=N1 (stereo not given)
→ 0%, 2.8%, 7%, 2
> Cc1ccc(NS(=O)(=O)c2cccc3cccnc23)cc1Cl
→ -2%, 0.1%, -14%, .
> O=C(C=C(C(=O)c1ccccc1)c1ccccc1)c1ccccc1
→ ., 3.5%, 0%, .
> Cc1ccc(C)c(NC(=O)C(=O)NCCCN2CCOCC2)c1
→ 1%&-2%, -2.2%, -4%, -5
> COc1ccccc1NC(=O)CC(=O)CSc1nnc(-c2ccc(C)cc2)n1C
→ -8%, -4.1%, -18%, 6
> CCN(CC)S(=O)(=O)c1ccc(O)c(C(=O)OCC(=O)N2CCCC2)c1
→ -3%, 0.3%, -7%, .
> CC(C)Cn1c(CN(C)Cc2ccccc2)nc2c1c(=O)n(C)c(=O)n2C
→ 21%, -1.5%, 8%, -5
> CC1CCN(CCCCOc2ccccc2[N+](=O)[O-])CC1
→ -7%, -2.0%, 12%, -9
> O=S(=O)(c1ccc(OC(F)(F)F)cc1)N1CCCC(N2CCOCC2)C1 (stereo not given)
→ 3%, -1.3%, 28%, .
> CN(C)CCCNc1ncnc2sc(-c3ccccc3)cc12
→ -7%, -2.5%, -11%, 3
> COC(=O)C1CC2=C(CCCC2=O)NC1=O (stereo not given)
→ ., 0.3%, 26%, .
> Cc1cc(C)nc(SCC(=O)NNC(=O)c2cccs2)n1
→ 0%, ?, 4%, -1
> O=C(O)CCc1ccc(-c2ccc(F)cc2)n1CC1CCCO1 (stereo not given)
→ -3%, -3.3%, 9%, 5
> Cc1cccc(Nc2ccncc2S(N)(=O)=O)c1
→ ., 1.5%, 5%, .
> COc1cc(OC)c(OC)cc1CN1CCCC(C(=O)N2CCCCC2)C1 (stereo not given)
→ -4%, 1.4%, -13%, 9
> CCCN=C1N(C)C[C@@H]2[C@@H]3C(=O)N(Cc4ccccc4)C(=O)[C@@H]3[C@](C)(C(=O)OC)N12
→ ., 0.6%, -6%, .
> COc1ccc(C(C)NC(=O)C2CCCC2)cc1OC (stereo not given)
→ -4%, 2.5%, -2%, .
> CCN(CC)S(=O)(=O)c1cccc(C(=O)N/N=C2\CCCC(=O)C2)c1
→ -9%, ?, ?, ?

# (cont.)
# Each structure is followed by: miR-21 reporter, Rango-impB inh, Rango release inh, GLA inh pH 4.5
> O=C(O)Cn1ncc2ccccc2c1=O
→ 3%, -0.4%, 2%, 4
> CCC(CC)NC(=O)Nc1ccccc1C(F)(F)F
→ 9%, -4.2%, 13%, -5
> COc1ccc(C(=O)C2CCN(CC(=O)Nc3ccc(OC)cc3OC)CC2)cc1
→ 0%, -1.7%, 4%, .
> CCOc1ccc(CC2c3cc(OCC)c(OCC)cc3CCN2C(=O)CN2CCN(C)CC2)cc1OCC (stereo not given)
→ 0%, 2.0%, 1%, -10
> Cc1ccc(Cn2ccc(NC(=O)c3cc4nc(-c5ccco5)cc(C(F)(F)F)n4n3)n2)cc1
→ 1%, -3.6%, ?, 4
> CCCC(=O)Nc1ccc(Cl)c(NC(=O)c2cccc(OC)c2)c1
→ 2%, 1.5%, -16%, 4
> O=C(N/N=C/c1ccc2c(c1)OCO2)c1cc(-c2ccc(F)cc2)nc2ccccc12
→ 11%, -6.2%, 10%, 2
> CCOC(=S)SCC(=O)N1CCc2cc(OC)c(OC)cc2C1C1C(=O)CC(C)(C)CC1=O (stereo not given)
→ -6%, -0.1%, 0%, -2
> CCOc1ccc(C=O)cc1CN1CCCCC1
→ -2%, 9.8%, 2%, -15
> O=c1c(Br)c(N2CCOCC2)cnn1-c1ccccc1
→ -48%, ?, -11%, 8
> CN(CC(=O)NCCc1ccccc1)S(=O)(=O)c1cccs1
→ -26%, -0.4%, 8%, 7
> CC(C)CNc1nc2c(c(=O)n(C)c(=O)n2C)n1Cc1cccc(Br)c1
→ -9%, -2.3%, 1%, 6
> C/C(Cl)=C\Cn1c(NCCCn2ccnc2)nc2c1c(=O)n(C)c(=O)n2C
→ -1%, 4.1%, -1%, 2
> COc1ccc(-c2cc(C(=O)NCc3cccs3)no2)cc1
→ -38%, 3.8%, -2%, -1
> Cc1c(C(=O)N2CCCCC2)c(S(=O)(=O)Nc2cccc(Br)c2)c(C)n1C
→ -1%, 5.2%, -7%, .

# Next part
# Each structure is followed by: miR-21 reporter, Rango-impB inh, Rango release inh, GLA inh pH 4.5
> O=C(N/N=C1\NC(=O)C(CO)(CO)S1)c1ccccc1
→ -9%, -2.1%, -10%, -1
> C(=N\n1c2ccccc2c2ccccc21)/c1ccccc1
→ -1%, -2.7%, 3%, -13
> Cc1ccc2nc(-c3cccc(-c4cccc(Cl)c4)c3)c(NCc3ccccc3)n2c1
→ ., ?, -6%, .
> Oc1ccc(-c2cn3c(n2)SCC3)cc1O
→ -22%, ?, 2%, -9
> O=C(CCN1C(=O)/C(=C/C=C/c2ccccc2)SC1=S)Nc1nc2ccccc2s1
→ 0%, 5.0%, 4%, 0
> Cc1ccc(S(=O)(=O)N2CC=C(C(=O)NCc3ccc(F)cc3)CC2)cc1
→ -6%, ., ., -15
> COc1ccc(OC)c(NC(=O)CSc2nnc(-c3cccnc3)s2)c1
→ 17%, ?, -1%, 0
> Cc1cc(NS(=O)(=O)c2ccc(NC(=O)NC(C)(C(F)(F)F)C(F)(F)F)cc2)no1
→ 1%, -5.6%, 17%, -2
> O=C(CSc1ccccc1C(=O)O)NC12CC3CC(CC(C3)C1)C2
→ 1%, 4.3%, -3%, -3
> N/C(=N/OS(=O)(=O)c1ccc([N+](=O)[O-])cc1)c1ccncc1
→ 5%, -0.6%, 0%, -11
> CCN(CC)c1ccc(C(=O)OCc2cc(=O)oc3cc(O)ccc23)cc1
→ -8%, ?, ?, -1
> COc1cc(C=C2C(=O)c3ccccc3C2=O)ccc1O
→ -7%, -1.1%, 4%, -6
> CCc1nnc(NC(=O)CSc2nnc(Cc3cccn3C)n2CCOC)s1
→ 0%, -2.7%, 4%, 4
> COC(=O)C1=C(Nc2cc(Cl)cc(Cl)c2)CSC1
→ 1%, 0.9%, 11%, -1
> CCOC(=O)c1c(-c2ccccc2)csc1NC(=O)COc1ccc2c(C)cc(=O)oc2c1
→ -7%, -1.1%, 2%, 0

# Profiles, looked up by structure.
# `Cc1ccc2nc(-c3cccc(-c4cccc(Cl)c4)c3)c(NCc3ccccc3)n2c1` in the list: miR-21 reporter: .; Rango-impB inh: ?; Rango release inh: -6%; GLA inh pH 4.5: .
# `N/C(=N/OS(=O)(=O)c1ccc([N+](=O)[O-])cc1)c1ccncc1` in the list: miR-21 reporter: 5%; Rango-impB inh: -0.6%; Rango release inh: 0%; GLA inh pH 4.5: -11

# Next part.
# Each structure is followed by: miR-21 reporter, Rango-impB inh, Rango release inh, GLA inh pH 4.5
> CC1CCCCC1NC(=O)C1CCN(S(=O)(=O)N2CCC3(CC2)OCCO3)CC1 (stereo not given)
→ -5%, 2.4%, 9%, 3
> CCN1C=C(C(=O)OC)C(c2cccc(OC)c2OC)C(C(=O)OC)=C1
→ 1%, ?, ?, ?
> CN(C)CCN1C(=O)C(O)=C(C(=O)c2cc3ccccc3o2)C1c1ccc(N(C)C)cc1 (stereo not given)
→ -17%, ?, -1%, -11
> CC(=O)C1=C(O)C(=O)N(C2CCCCC2)C1c1ccccc1 (stereo not given)
→ -3%, -0.3%, -1%, -3
> O=C1CN(Cc2cc(=O)oc3cc4c(cc23)CCC4)CCN1
→ 4%, -2.1%, 0%, 1
> Cc1ccccc1NC(=S)N(CCN(C)C)C(C)c1ccco1 (stereo not given)
→ -22%, 1.9%, 2%, 5
> COc1ccc(NC(=O)c2cc(C)cc(C)c2)cc1S(=O)(=O)N1CCCCC1
→ ., -1.2%, -7%, .
> CC1CCCCN1C(=O)CN1C(=O)CN(C)C(=O)c2ccccc21 (stereo not given)
→ -3%, ?, 1%, -1
> COc1cc(OC)cc(C(=O)NCC(=O)NCCN2C(=O)S/C(=C\c3ccccc3Cl)C2=O)c1
→ ., -1.4%, 22%, .
> COc1ccc2c(CC(=O)NCCN3C(=O)S/C(=C\c4cccnc4)C3=O)coc2c1
→ 2%, ?, -10%, 0
> CC1=C(C(=O)Nc2ccc(Br)cc2)C(c2ccco2)NC(=O)N1 (stereo not given)
→ 19%, 1.1%, 0%, 4
> CCC(=O)c1cn(/C(=C\C(=O)OC(C)(C)C)CCC(OC)OC)cc1CC
→ ., 0.8%, 0%, .
> COc1ccc(NC(=O)c2cc(S(=O)(=O)N3CCOCC3)ccc2C)cc1S(=O)(=O)N1CCOCC1
→ ., -0.7%, -2%, .
> CSCCC(NS(=O)(=O)c1ccc2ccccc2c1)C(=O)O (stereo not given)
→ 2%, -1.0%, -19%, 2
> CC(=O)NS(=O)(=O)c1ccc(NC(=O)/C=C/c2ccco2)cc1
→ -1%, -5.4%, -13%, -10

# Continued:
# Each structure is followed by: miR-21 reporter, Rango-impB inh, Rango release inh, GLA inh pH 4.5
> C=CCNC(=O)N1CCC(CO)(Cc2ccc(Cl)cc2)CC1
→ 4%, -0.9%, 8%, -1
> O=C(Cc1ccc(Br)cc1)Nc1cccc(Cl)c1
→ -16%, -3.5%, 10%, -8
> COc1cc(C(=O)Nc2sc3c(c2C(=O)NCc2ccco2)CCCC3)cc(OC)c1OC
→ 1%, -2.2%, -8%, 14
> Cc1nc(-c2noc(-c3ccccc3Cl)n2)c(C(F)(F)F)o1
→ -62%, -0.2%, -2%, -2
> COc1cc(C(=O)Nn2c(CC(C)C)nc3ccccc3c2=O)cc(OC)c1OC
→ 3%, 3.5%, -8%, .
> CCC(C)(C)n1nnnc1C(C(C)C)N(CCN1CCOCC1)Cc1cc2cccc(C)c2[nH]c1=O (stereo not given)
→ 0%, -2.9%, -12%, 4
> Nc1nc(-c2ccccn2)nc(N)c1Cc1ccc(Cl)cc1Cl
→ 13%, -0.8%, -9%, 4

# Some of the compounds tested. The share of hits here may be higher or lower than overall.
